Screening results (PubChem BioAssay)
UCH37 DUB inh = inhibitors of human deubiquitinating enzyme UCH37; purified proteasome/UCH37, Ub-AMC cleavage fluorescence; inhibition, % (concentration not given with the values); hit rate 0.33% among 330,000;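 active means mean of two replicates above 20%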;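 further: 0% = compound-free wells with enzyme and 100% = wells lacking proteasome; stock transfer was 100 nL into about 20 µL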
Target sequence (Q9Y5K5 whole entry, looked up): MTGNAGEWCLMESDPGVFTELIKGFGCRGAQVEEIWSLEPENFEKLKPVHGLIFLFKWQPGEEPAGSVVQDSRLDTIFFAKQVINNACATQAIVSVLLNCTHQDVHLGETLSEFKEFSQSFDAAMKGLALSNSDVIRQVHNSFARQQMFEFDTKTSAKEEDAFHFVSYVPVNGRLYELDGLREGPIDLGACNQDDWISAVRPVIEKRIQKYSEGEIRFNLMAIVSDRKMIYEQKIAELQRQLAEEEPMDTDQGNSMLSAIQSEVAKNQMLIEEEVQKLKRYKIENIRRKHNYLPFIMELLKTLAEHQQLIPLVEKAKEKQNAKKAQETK
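assay system = human UCH37 enzyme supplied as purified proteasome complex | amount = proteasome at 0.15 nM in the dispensed enzyme solution | schedule = 30 min compound-proteasome preincubation then 25 min substrate reaction, room temperature | measured by = fluorescence, ex 355 nm, em 460 nm | benchmarks = no-proteasome wells (full inhibition) and compound-free wells (no inhibition)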
RanGTP-Impb inh = disruptors of Ran-importin-beta complex formation – biochemical, FRET, CFP-Ran, YFP-importin-beta, homogeneous, primary screen. cell-free CFP-Ran/YFP-importin-beta FRET ratio. inhibition, % (concentration not given with the values). hit rate 1.1% among 300,000. AID 2216;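 active means most replicates above 15%; inconclusive means exactly half above 15%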;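 further: 0% = DMSO wells and 100% = Ran loaded with GDP instead of GTP; wells of about 40 µL received 100 nL stock; the first replicate is given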
Beta apoptosis = beta cell apoptosis inhibition | protection from apoptosis, % (concentration not given with the values) | hit rate 0.8% among 300,000 | AID 435005 | INS-1E cytokine-induced death, ATP luminescence, 48 h; percent of positive-control rescue, neutral wells zero;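 active means all replicates at 75% or more, or half of them and the mean; inconclusive means half reach 75% but not the mean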;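 further: 0% = cytokine-treated negative control wells and 100% = positive control rescue; higher means more ATP so stronger rescue from cytokine killing; wells of about 40 µL received 100 nL stock; the first replicate is given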
Calb FLC = C. albicans growth modulation with fluconazole; C. albicans CaCi-2 (fluconazole-resistant clinical isolate) + fluconazole, Alamar Blue growth, 48 h; growth inhibition, % (no concentration beside the values); hit rate 0.57% among 300,000; AID 1979;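 active means most replicates above 75%; inconclusive means exactly half above 75%; inactive means most below 75%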;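 further: all wells also contain fluconazole at 8 µg/ml as a sub-toxic cotreatment; 0% = median of DMSO wells and 100% = median of geldanamycin control wells; wells of about 8 µL received 7.5 nL stock; the first replicate is given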
T cruzi repl = blocks replication of Trypanosoma cruzi; hit rate 1.4% among 300,000; T. cruzi beta-gal in NIH3T3, luminescence, 90 h; AID 1885; inhibition, % (concentration not given with the values);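 active means mean inhibition across valid replicates above about 55%, limit read from the data; inconclusive means mean below that limit but half or more replicates reach it; inactive means mean below it, under half of replicates reach it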;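 further: signal also drops with host cell toxicity which is not excluded here; 0% = plate median of DMSO wells and 100% = zero luminescence signal; higher percent means less beta-gal luminescence so fewer parasites; stock transfer was 50 nL into about 50 µL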
A1 inh = inhibitors of the anti-apoptotic protein A1, read as caspase activation | caspase activation, % (no concentration beside the values) | MEF A1-2A-BIM cells, Caspase-Glo 3/7 luminescence, 3 h; percent of clofoctol response, vehicle zero | AID 2462 | hit rate 0.066% among 330,000;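 active means over half of replicate activation scores above 10%, or exactly half above 10 with the replicate mean above 10; inconclusive means replicate mean below 10 yet half the replicates above 10; inactive means over half of replicates below 10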;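 further: wells of about 30 µL received 50 nL stock; many hits fall short of the cut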
Beta2AR agonist = activates human beta-2 adrenergic receptor causing internalization; AID 504454; hit rate 0.43% among 340,000; P07550; Am2.2-beta2AR cells, FAP receptor internalization, flow cytometry; reference of the scale not given here; response, % (test concentration not listed);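 active means response above a set limit, near 3 SD of response in nonfluorescent compounds, cut at about 42% in these data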;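 further: stock transfer was 100 nL into about 11 µL; a reference agonist was the positive control; negative values mostly stem from fluorescent compounds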
Target sequence (P07550 whole entry, looked up): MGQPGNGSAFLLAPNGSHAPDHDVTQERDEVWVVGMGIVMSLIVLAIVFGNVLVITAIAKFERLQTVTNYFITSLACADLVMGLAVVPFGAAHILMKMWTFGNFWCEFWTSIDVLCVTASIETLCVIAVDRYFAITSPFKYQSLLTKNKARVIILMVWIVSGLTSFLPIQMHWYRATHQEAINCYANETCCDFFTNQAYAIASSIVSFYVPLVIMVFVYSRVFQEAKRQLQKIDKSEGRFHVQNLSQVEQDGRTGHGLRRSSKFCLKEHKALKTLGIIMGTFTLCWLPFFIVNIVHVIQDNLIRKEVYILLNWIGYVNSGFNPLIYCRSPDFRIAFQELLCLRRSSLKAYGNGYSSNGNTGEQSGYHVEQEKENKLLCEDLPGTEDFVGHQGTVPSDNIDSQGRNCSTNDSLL
LANA-H2A inh = blocks KSHV LANA binding to histone H2A/H2B; Q9QR71; cell-free LANA-H2A/H2B peptide, fluorescence polarization; inhibition, % (no concentration beside the values); hit rate 0.6% among 320,000; AID 2629; in the data active means inhibition mostly above about 10%, no sharp cut-off; inactive means mostly below about 6.7%;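 further: stock transfer was 7.5 nL into about 10 µL; 0% = median of vehicle wells and 100% = median of positive control wells; one replicate is shown; the record names a cut of 25% in any replicate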
Numbers without * were called inactive; ? = inconclusive; / = not tested or not shown.

Order of results: A1 inh, Beta apoptosis, T cruzi repl, LANA-H2A inh, Calb FLC, RanGTP-Impb inh, Beta2AR agonist, UCH37 DUB inh
- COc1ccc(-c2nc(CS(=O)CC(=O)NCCCN3CC(C)CC(C)C3)c(C)o2)cc1OC (stereo not given)
    0.0, -3.8, -3.5, -3.8, -0.1, 0.6, 1.8, 1.2
- O=C(NCCS(=O)(=O)NCc1ccccc1)c1ccccc1
    0.6, 1.0, -6.8, -1.5, -2.8, -1.7, -1.3, 1.2
- C=C(C)c1cccc(C(C)(C)NC(=O)NCc2ccc(OC)c(OC)c2)c1
    0.7, -5.7, -4.7, -1.3, 24.3, 6.1, -3.7, 1.3
- CCCS(=O)(=O)N1CCN=C1SCc1cccc(F)c1
    -0.2, -0.7, 6.0, -0.7, 4.3, 1.9, -0.3, 5.4
- COc1ccc(OC)c(N/C(C)=C/C(=O)c2ccc(C)o2)c1
    -0.1, -0.9, 33.7, 3.1, -18.8, 0.3, -22.2, 9.5
- N#CCCCC#Cc1ccc2c(c1)COc1c3ccccc3nn1-2
    -11.8, 12.0, 0.7, -8.1, -0.2, 4.3, 7.6, 4.1
- COC1(OC)N=C(N)C2(C#N)C(c3ccccc3)NC(C)=CC12C#N (stereo not given)
    -0.6, -0.7, -2.8, -2.2, -10.9, 3.1, 0.2, -450.4
- CC1CC(C)CN(C(=O)c2ccc3c(c2)N(Cc2ccccc2)CCS3)C1 (stereo not given)
    0.3, 0.5, 42.8, 2.6, 16.8, -0.1, 12.0, -36.9
- C/C(=N\NC(=O)OC(C)(C)C)c1ccc(-n2ccnc2)cc1
    0.1, -1.2, -10.9, -0.4, 3.0, -2.5, -5.8, /
- CC(C)c1nnc(NC(=O)CCC2CCCCC2)s1
    0.1, -3.8, -4.3, 4.2, -3.4, 1.1, -4.3, 3.1
- CCOC(=O)C1CCN(C(=O)c2cn(CCOC)c(=O)c3c2c2ccccc2n3C)CC1
    /, /, 21.1, /, -3.3, -0.4, 6.2, -177.5
- Cn1c(CN2CCN(c3cccc(Cl)c3)CC2)nc2ccccc21
    -0.7, -2.1, 21.4, 0.0, -7.1, ?, 21.5, -30.5
- Cc1cc(C(=O)c2cccs2)c(N)s1
    0.2, -4.5, -8.7, -7.2, 35.4, -2.4, -1.9, 4.8
- Cc1ccc(C(=O)N/C(=C\c2ccc(-c3cccc([N+](=O)[O-])c3)o2)C(=O)NC(C)(C)C)cc1
    -0.3, 13.1, 6.2, 4.8, -4.7, -3.4, -16.6, 8.9
- O=C(CC1(c2ccc(Cl)cc2)C2CC3CC(C2)CC1C3)NCCO (stereo not given)
    0.1, -2.3, 1.5, 0.2, 4.9, 2.7, -1.5, 3.8
- COc1ccc(-c2nnc(N3CCC(C)CC3)c3ccccc23)cc1
    0.9, -3.1, 34.0, 3.3, 26.8, -4.0, 10.6, 3.5
- O=S1(=O)N=C(Nc2nncs2)c2ccccc21
    -1.6, -2.8, -9.8, -0.6, -0.8, 0.3, 9.0, 7.1
- COc1nc(NCc2ccco2)nc(N2CCC(C)CC2)n1
    -0.4, /, -0.1, -3.2, -1.5, 2.7, 24.7, 6.4
- O=C(C1CCC(CNc2c(N3CCCCC3)c(=O)c2=O)CC1)N1CCCCC1 (stereo not given)
    0.5, /, -10.5, 0.6, -0.1, 3.7, -0.5, 6.7
- COCCN1CCN(C(=O)C2CCC(=O)N(Cc3cccc(C(F)(F)F)c3)C2)CC1 (stereo not given)
    0.4, -17.7, -11.4, 3.5, -20.6, -4.2, -0.5, 2.7
- CC1(C)Cc2noc(N)c2C(C)(C)N1OC(=O)c1cccs1
    -0.2, -3.8, 1.7, 3.6, 10.4, -1.0, 1.9, -0.4
- Cc1[nH]c2ccc(OC(=O)N3CCOCC3)cc2c1C(=O)OC(C)C
    -0.3, 7.5, 12.3, -3.3, 19.9, -2.7, 22.6, 7.0
- COc1ccc(NC(C)=O)cc1S(=O)(=O)N1CC=C(c2ccccc2)CC1
    -0.5, -0.3, /, -5.0, /, /, 2.1, -1.7
- CCOc1cc(/C=C2\SC(N3CCCCC3)=NC2=O)ccc1O
    1.1, 3.6, 6.9, -4.0, 7.7, -0.8, -0.5, 4.7
- COC(=O)c1ccc(N)nc1
    -1.4, -0.4, -11.9, -1.3, -1.1, 2.7, -1.2, 1.7
- CSc1ccc(CCNC(=O)c2cc(C)nn2-c2ccccc2)cc1
    1.1, 5.1, 5.2, 1.1, ?, -3.5, 10.2, 1.9
- O=C(Cc1ccc(S(=O)(=O)N2CCCC2)s1)Nc1cccc([N+](=O)[O-])c1
    1.6, -1.8, /, 0.3, /, /, 5.5, 1.4
- Cc1ccccc1NCc1nc2ccccc2n1C
    -5.6, 4.2, 9.8, 2.6, 6.0, 2.5, -4.3, 1.1
- CC(C)CN(C(=O)COC(=O)CCN1C(=O)c2ccccc2C1=O)C1CCS(=O)(=O)C1 (stereo not given)
    -0.6, -1.7, 4.0, 1.4, 35.5, 4.6, -4.1, 2.6
- O=C(NC(=S)Nc1ccccc1C(F)(F)F)c1ccccc1F
    0.2, -3.1, -16.1, -10.4, -26.6, 6.9, 6.7, /
- CSc1ccc(S(=O)(=O)NCC(=O)OCCOc2ccccc2)cc1[N+](=O)[O-]
    -0.3, 1.1, -3.1, 1.0, /, -1.9, -7.2, 2.0
- CCOC(=O)C1CCN(C(=O)Cc2ccc(C)cc2)CC1
    0.1, 0.7, -3.3, -2.5, 1.3, -2.6, -6.8, -0.5
- CC(C)CN(C(=O)COC(=O)CN1C(=O)c2ccccc2C1=O)c1c(N)n(Cc2ccccc2)c(=O)[nH]c1=O
    0.0, -1.9, -6.2, 3.4, 3.8, -3.7, 2.8, 3.1
- CCNC(=O)COc1ccc(/C=C2\COc3ccccc3C2=O)cc1OC
    0.1, 4.4, -27.7, 1.6, 1.4, 4.7, 20.2, 6.7
- CCC(C)NC(=O)C1CCN(c2nc(OC)nc(OC)n2)CC1 (stereo not given)
    -0.3, -9.1, -1.3, 4.5, -5.3, -3.0, 5.3, 0.1
- Cc1cc(Br)cc(C=Nc2ccc(N3CCOCC3)cc2)c1O
    0.3, 0.4, 4.3, -1.7, 3.8, -13.3, 6.2, 5.2
- CNS(=O)(=O)c1cc2c3c(cccc3c1)C(=O)NC2=O
    0.6, 12.5, -2.8, 0.7, 7.7, 3.1, 0.3, 2.9
- Cn1c(SCC(=O)Nc2ccc3[nH]c(=O)[nH]c3c2)nnc1-c1ccc(F)cc1
    0.0, 1.8, -6.9, -1.9, -2.5, -1.0, 6.1, 5.0
- CCOc1ccc(C(=O)NC(=S)NCc2cccnc2)cc1
    -1.0, /, 8.4, -3.5, -7.3, 4.3, -5.1, 1.6
- O=c1cc(O)c(-c2cccc(C(F)(F)F)c2)c(Cl)[nH]1
    -0.7, -9.8, 5.4, 3.7, -0.3, -5.6, 0.0, 1.4
- O=C(COC(=O)c1ccc(Br)o1)Nc1ncc([N+](=O)[O-])s1
    -7.3, -8.6, /, -3.2, /, /, 4.5, 4.3
- CCOc1ccc(N2C(=O)C(CC(=O)Nc3ccc(F)cc3)N(Cc3ccccn3)C2=S)cc1 (stereo not given)
    0.4, 2.2, 26.3, -2.9, 8.1, ?, 0.5, 4.7
- O=C(COC(=O)CCN1C(=O)C2CC=CCC2C1=O)NCCc1ccccc1 (stereo not given)
    -0.4, -1.3, -22.3, -7.1, -11.5, 1.1, 1.5, 0.8
- COC(=O)N/N=C/c1cn(CC(C)COc2ccccc2)c2ccccc12 (stereo not given)
    0.1, 1.9, 20.6, 7.3, -0.9, 5.4, 7.8, /
- CCOC(=O)C1=C(c2ccccc2)OC(N)=C(C#N)C1c1ccco1 (stereo not given)
    1.2, -1.4, -3.4, -0.5, -4.1, /, 2.0, 9.4
- Cc1ccc(S(=O)Cc2ccc(C(=O)N3CCN(C(=O)c4ccco4)CC3)o2)cc1 (stereo not given)
    0.9, -4.0, -8.0, 3.6, -7.7, 1.0, 0.8, 1.5
- CC(CC(=O)N1CCN(c2ccc(C(F)(F)F)cn2)CC1)n1ccnc1 (stereo not given)
    -0.9, 4.3, 67.5*, 0.0, 7.3, -6.1, -2.1, -1.8
- Cc1ccc(-n2nnc3c(=O)n(CC(=O)N4CCOCC4)cnc32)cc1
    1.9, -5.3, -11.2, 0.0, 8.8, 4.0, -9.0, 6.0
- Cc1coc2c1c(C)cc1oc(=O)c(CC(=O)NCCC(=O)O)c(C)c12
    0.7, -5.8, -13.3, -4.3, -4.5, 1.7, 2.2, -493.9
- CN1CC(=O)NC1=NC(=O)c1ccc(Cl)c(S(=O)(=O)N2CCCCCC2)c1
    -0.1, -9.6, -35.5, -1.5, 0.2, 2.2, 5.1, 1.6

(list continues)
Order of results: A1 inh, Beta apoptosis, T cruzi repl, LANA-H2A inh, Calb FLC, RanGTP-Impb inh, Beta2AR agonist, UCH37 DUB inh
- Cc1cccc(CSc2nnc(-c3ccco3)n2C)c1
    -0.2, 6.0, 2.2, -1.7, 0.6, 6.0, -1.3, -3.2
- O=C1C(=O)N(c2ccc(O)cc2)C(c2ccccc2[N+](=O)[O-])/C1=C(\O)c1ccccc1 (stereo not given)
    -0.5, -6.0, 7.5, -1.6, -3.9, 5.2, 0.8, 12.5
- Fc1ccccc1CN1CCCCCCC1
    0.0, 1.5, -0.8, -3.7, 2.8, -0.5, 3.2, 5.8
- Cc1nnc(SCC(=O)Nc2ccc(N3CCOCC3)cc2)n1-c1ccccc1
    -0.3, -4.8, -0.6, -4.0, 3.4, -1.4, -9.6, 1.9
- O=C1Nc2ccccc2C(=O)N2[C@H](c3ccc(F)cc3)[C@@H]3C(=O)N(Cc4ccccc4)C(=O)[C@@H]3[C@H]12
    0.3, 6.2, -10.9, 4.7, -4.9, -0.4, 4.1, -0.7
- CC(C)CNS(=O)(=O)c1ccc(CCC(=O)N2CCCC2)cc1
    2.8, 1.3, 0.0, -2.9, -1.9, -0.5, 2.3, 0.3
